Compound activity deposited in PubChem by several laboratories.
BJeLR viability: BJeLR cell viability loss. inhibition, % (test concentration not listed). BJeLR (HRASV12) viability, CellTiter-Glo ATP luminescence, 48 h; reference of the scale not given here. actives 0.17% (n = 300,000). AID 1554;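 active = replicate mean above 50%; inconclusive = above 50% but judged a plate artefact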;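 also: 50 nL library stock added to about 25 µL; numbers are from one replicate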
Sa ugtP lethal: kills S. aureus RN4220 lacking UgtP | S. aureus RN4220 ugtP deletion, OD600 growth, 16 h; some inactives read as strong as hits | actives 0.54% (n = 330,000) | AID 1259309 | growth inhibition, % (test concentration not listed);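 active = z-score under -3 and OD600 up to 0.15 on both plates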;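 also: plate controls were untreated wells for no effect and antibiotic for full effect; wells of about 80 µL received 100 nL stock; the first replicate is given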
Mtb hypoxia inh: Mtb hypoxia fluorescent reporter inhibition; M. tuberculosis hypoxia-regulated fluorescent reporter, fluorescence; fluorescence inhibition, % (test concentration not listed); actives 0.1% (n = 300,000);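 active = 35 to 45% if threefold the growth effect, above 45% if 1.5-fold the growth effect; inactive = the rest, general growth blockers included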;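 also: wells of about 50 µL received 100 nL stock; 0% = vehicle wells and 100% = reference inhibitor wells; whole bacteria with a GFP reporter of the hypoxia response; strong numbers were not always called active; many hits fall short of the cut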
PrP UTR inh: inhibition of PrP 5' UTR reporter expression | cell-based PrP 5' UTR mRNA reporter, plate reader | inhibition, % (no concentration beside the values) | actives 0.35% (n = 340,000) | AID 488862;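 active = every replicate at 50% or more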;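 also: 0 = median of the neutral control wells; tested in H4 reporter cells; numbers are from one replicate; inactives centre near -14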
RN4220 kill: S. aureus RN4220 growth inhibition; OD600, 16 h; actives 0.33% (n = 330,000); inhibition, % (test concentration not listed); AID 1259311;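 active = z-score of -3 or lower and OD600 up to 0.18 on both plates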;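 also: plate controls were untreated cells for no effect and reference antibiotic for full effect; stock transfer was 100 nL into about 80 µL; one replicate is shown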
Bead autofluor: compound fluorescence in toxin protease inhibitor counterscreen; compound autofluorescence counterscreen, microsphere flow cytometry; hits give high values; fluorescence intensity (no concentration beside the values); actives 3.1% (n = 360,000); AID 624483;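 active = at least 3 SD above the mean of all compounds, about 16000 in these data; inconclusive = too few beads counted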;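 also: 100 nL of 1 mM stock went into each well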
Mtb hypoxia inh growth: further read-out of Mtb hypoxia inh, marked with its call; growth inhibition, %; measured here: M. tuberculosis growth (absorbance);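 0% = vehicle and 100% = reference antibiotic; read after six days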
Starred values were filed as active, the others as inactive; u = inconclusive; x = not tested or not shown.

Letter code: A = BJeLR viability; B = Sa ugtP lethal; C = Mtb hypoxia inh; D = Mtb hypoxia inh growth; E = PrP UTR inh; F = RN4220 kill; G = Bead autofluor
CC(=O)Nc1ccc(NC(=O)C(C)OC(=O)c2cccc(S(=O)(=O)N3CCCC3)c2)cc1 (stereo not given)
  A: -5	B: 11	C: 2	D: 7	E: -17	F: -2.3	G: u
Nc1cc2c(cc1Cl)-c1ccc(Cl)cc1C2
  A: x	B: 2	C: -2	D: -9	E: x	F: -5.3	G: 2839
NC(=S)N/N=C/c1c[nH]c2ccccc12
  A: 0	B: x	C: x	D: x	E: -22	F: x	G: 4698
COc1ccc2oc(=O)c(C(=O)N3CCCC3)cc2c1
  A: 3	B: 1	C: 3	D: 4	E: -15	F: 1.4	G: 3431
CCOC(=O)C1=C(C2=CCCCC2)c2ccc(OC)cc2N(S(=O)(=O)C(F)(F)F)C1C(=O)OCC (stereo not given)
  A: x	B: 11	C: 4	D: 6	E: -4	F: 1.2	G: 3486
O=C(c1cc(C(=O)NCCc2ccccc2)c(=O)n(CCc2ccccc2)c1)c1cc(Cl)ccc1O
  A: -4	B: -15	C: 7	D: 5	E: -23	F: -12	G: 1920
Cc1cc(C)c(C(=O)C(C)OC(=O)c2ccc(Cl)nc2)cc1C (stereo not given)
  A: 1	B: 8	C: 11	D: -1	E: -13	F: 2.2	G: 6284
Cc1c(Br)c(C(=O)N2CCc3ccccc32)nn1C
  A: -30	B: 9	C: 2	D: 7	E: -25	F: 4.2	G: 2601
CC(=O)Nc1ccc(-c2csc(NC(=O)c3ccc(C)o3)n2)cc1
  A: 6	B: -11	C: x	D: x	E: -4	F: 6.0	G: 2810
COc1ccc(CC(=O)OCC(=O)N2CCN(S(=O)(=O)c3ccc(C)cc3C)CC2)cc1
  A: x	B: 6	C: 17	D: 37	E: 88*	F: 1.4	G: 3298
Cc1[nH]c2ccccc2c1C(=O)C(=O)NC1CC(=O)N(c2ccc(F)cc2)C1 (stereo not given)
  A: 2	B: 1	C: 5	D: -5	E: -25	F: -0.1	G: 5933
O=S(=O)(c1ccc(Cl)s1)N1CCCc2cccc(O)c21
  A: 3	B: -5	C: 19	D: 13	E: -49	F: 12	G: 9135
C[C@H](NC(=O)c1nc[nH]c1C(=O)NCC(=O)OCc1ccccc1)C(=O)OC(C)(C)C
  A: 3	B: x	C: x	D: x	E: -23	F: x	G: 4187
Cc1nc2ccccc2nc1OCC(=O)Nc1cc(C(F)(F)F)ccc1N1CCOCC1
  A: -8	B: -4	C: x	D: x	E: -11	F: 0.9	G: 2766
COc1ccc(OCC(=O)O/N=C(\N)Cc2ccc(Cl)cc2)cc1
  A: -5	B: 19	C: x	D: x	E: -9	F: -0.2	G: 3631
O=C(CCCO)NN=Cc1cc(Br)ccc1O
  A: x	B: 7	C: 9	D: -6	E: x	F: 6.5	G: x
Cn1c(=O)oc2cc(S(=O)(=O)NCCN3CCCCCC3)ccc21
  A: 1	B: 1	C: 1	D: 4	E: -7	F: 3.8	G: 21921*
O=C1COc2ccc(S(=O)(=O)N3CCCC3)cc2N1
  A: -1	B: 10	C: 1	D: 1	E: -14	F: 2.7	G: 3822
CCOc1cc(Br)cc(/C=C2\SC(=Nc3ccccc3)NC2=O)c1O
  A: 4	B: -33	C: -2	D: -5	E: -8	F: -17	G: 4168
O=C(CN(CC1CCCO1)C(=O)CNS(=O)(=O)c1ccccc1)NCc1ccc(F)cc1 (stereo not given)
  A: -5	B: -3	C: 8	D: 5	E: -8	F: 3.7	G: 4128
COCCNC(=O)NC(=O)COC(=O)c1cc([N+](=O)[O-])ccc1Sc1nc(C)cs1
  A: 3	B: -1	C: 4	D: 11	E: -16	F: 4.9	G: 3019
CC1(C)CC(=O)C(N=Nc2cccc(S(=O)(=O)N3CCOCC3)c2)=C(O)C1
  A: -13	B: 5	C: 0	D: 7	E: -5	F: 3.4	G: 4451
Cc1ccc(S(=O)(=O)NCc2ccccc2)cc1C(=O)N1CCCCCCC1
  A: -2	B: x	C: x	D: x	E: 0	F: x	G: 5094
c1ccc(CCCCc2ccccn2)cc1
  A: x	B: 9	C: 4	D: 6	E: -53	F: 1.9	G: 3576
C/C(C=NNC(=O)c1cnccn1)=C\c1ccco1
  A: x	B: 5	C: 3	D: 0	E: x	F: -3.6	G: x
Cc1nn(-c2ccccc2)c(Cl)c1/C=C1\C(=O)N(C)C(=S)N1C
  A: -1	B: 5	C: 5	D: 12	E: -18	F: 6.7	G: 4747
CNC(=O)C1Cc2ccccc2CN1S(=O)(=O)c1cccs1 (stereo not given)
  A: 10	B: 0	C: -2	D: 7	E: -24	F: 4.3	G: 2402
COc1ccc(S(=O)(=O)N2CCC(C(=O)NC3CCCCC3C)CC2)cc1 (stereo not given)
  A: 4	B: -1	C: -24	D: -7	E: -3	F: -2.3	G: 5553
COc1ccccc1OCc1ccc(C(=O)N(C)C)o1
  A: 9	B: -2	C: -5	D: -3	E: -15	F: 3.4	G: 3284
CC(C)(C)C1C=C(C(=O)NCc2nc3ccccc3[nH]2)OC(OCc2ccc(CO)cc2)C1 (stereo not given)
  A: x	B: -2	C: 5	D: 9	E: x	F: 1.4	G: x

Some of the entries above, reformatted.
| Molecule | BJeLR viability | Sa ugtP lethal | Mtb hypoxia inh | Mtb hypoxia inh growth | PrP UTR inh | RN4220 kill | Bead autofluor |
| --- | --- | --- | --- | --- | --- | --- | --- |
| Nc1cc2c(cc1Cl)-c1ccc(Cl)cc1C2 | x | 2 | -2 | -9 | x | -5.3 | 2839 |
| NC(=S)N/N=C/c1c[nH]c2ccccc12 | 0 | x | x | x | -22 | x | 4698 |
| COc1ccc2oc(=O)c(C(=O)N3CCCC3)cc2c1 | 3 | 1 | 3 | 4 | -15 | 1.4 | 3431 |

(listing goes on)
Letter code: A = BJeLR viability; B = Sa ugtP lethal; C = Mtb hypoxia inh; D = Mtb hypoxia inh growth; E = PrP UTR inh; F = RN4220 kill; G = Bead autofluor
Cc1ccc(CN(CC2CCCO2)C(=O)CN2C(=O)C(C(C)C)Oc3ccccc32)o1 (stereo not given)
  A: -9	B: 8	C: -7	D: 4	E: -13	F: 2.7	G: 11341
CC1(C)CN(c2ccc(CC#N)cc2)C1=O
  A: -2	B: 2	C: 1	D: 2	E: -28	F: 4.9	G: 4289
COC(=O)c1c(NC(=O)c2ccco2)sc2c1C(C(=O)OC)CC2 (stereo not given)
  A: -4	B: -13	C: 0	D: 10	E: -10	F: 14	G: 2601
COc1ccc(NN=C(Oc2ccc([N+](=O)[O-])cc2)C(C)=O)cc1
  A: x	B: 0	C: 6	D: 2	E: x	F: -2.1	G: x
Cn1cc(C(=O)Nc2ccc(C#N)cc2)c2ccccc2c1=O
  A: 6	B: 3	C: 5	D: 2	E: -23	F: -1.9	G: 3482
COCCCNc1nc(N)c([N+](=O)[O-])c(Nc2ccccc2OC)n1
  A: -4	B: x	C: x	D: x	E: 1	F: x	G: 4606
C[C@H](CO)N1C[C@H](C)[C@@H](CN(C)S(C)(=O)=O)Oc2c(NC(=O)Nc3ccc4c(c3)OCO4)cccc2C1=O
  A: x	B: 4	C: -8	D: -1	E: -15	F: 2.0	G: 2938
COCCN(C(=O)COC(=O)c1ccc(-c2ccccc2)cc1)c1c(N)n(Cc2ccccc2)c(=O)[nH]c1=O
  A: x	B: -11	C: -2	D: -4	E: -14	F: 5.6	G: 3859
O=C(Cn1c(=O)sc2ccccc21)Nc1ccc(S(=O)(=O)N2CCCCC2)cc1
  A: -14	B: -7	C: -11	D: -6	E: -12	F: -3.8	G: 3613
O=C(c1ccc(C(F)(F)F)cc1)C1CCCN(C(=O)CCc2cnccn2)C1 (stereo not given)
  A: 7	B: 6	C: -5	D: 2	E: 1	F: 5.7	G: 2008
CCCn1c(N)c(N(CCOC)C(=O)c2cccc(S(=O)(=O)N3CCCc4ccccc43)c2)c(=O)[nH]c1=O
  A: 0	B: 1	C: 7	D: 11	E: -20	F: 0.4	G: 5565
COc1ccc(/C=N\NC(=O)c2ccccc2)cc1COc1ccc(F)cc1
  A: 4	B: x	C: x	D: x	E: -8	F: x	G: 6413
O=C(Nc1ccc2oc(-c3ccccc3Cl)nc2c1)c1cncc(Br)c1
  A: -6	B: 5	C: -3	D: -2	E: -26	F: 6.0	G: 4025
Cc1nn(-c2ccccc2)nc1C(=O)NNC(=O)c1ccc(C(F)(F)F)cc1
  A: -13	B: 0	C: 4	D: 11	E: -45	F: 1.9	G: 5640
CC(NC(=O)c1cc(F)c(F)c(F)c1F)c1ccc(-n2ccnc2)cc1 (stereo not given)
  A: 12	B: -5	C: -5	D: 8	E: -2	F: -4.2	G: 5739
COc1ccc2cc(C(C)=O)c(=O)oc2c1
  A: -16	B: 2	C: 11	D: 2	E: -29	F: 0.9	G: 10893
O=C(COC(=O)C1CCN(c2ccc(C(F)(F)F)cn2)CC1)Nc1cccc(F)c1
  A: -7	B: 2	C: -5	D: -20	E: 1	F: 2.7	G: u
O=C(NCCCO)C(=O)c1c(-c2ccccc2)cc2ccccn12
  A: -3	B: 3	C: -6	D: 5	E: -22	F: 2.1	G: 4166
O=C(CN1CCN(S(=O)(=O)c2ccc(F)cc2)CC1)Nc1ccc(F)cc1F
  A: 10	B: 10	C: -7	D: -10	E: -17	F: 5.3	G: 5338
O=C(CSc1n[nH]c(=O)[nH]c1=O)Nc1ccc(Br)cc1Br
  A: x	B: 4	C: 8	D: 7	E: -18	F: 1.4	G: 3876
O=c1cc(CN2CCN(c3cccc(Cl)c3)CC2)c2cc3c(cc2o1)CCCC3
  A: 12	B: -8	C: -7	D: -9	E: -21	F: -1.5	G: 10512
CCOC(=O)C1CCN(c2ccc(C(=O)O)cc2[N+](=O)[O-])CC1
  A: -3	B: 1	C: 3	D: 11	E: -9	F: -2.4	G: 2014
O=C(Cc1cccs1)N/N=C/c1ccco1
  A: 4	B: x	C: x	D: x	E: -19	F: x	G: 2049
CC(C)c1nc2c([nH]1)c(=O)n(C)c(=O)n2C
  A: 11	B: 2	C: 1	D: 1	E: -18	F: 1.3	G: 4930
C1=CCC(CN2CCNCC2)CC1 (stereo not given)
  A: -1	B: 2	C: 1	D: -1	E: -19	F: 4.3	G: 5103
CCC(=O)c1ccc(N2CCC(C)CC2)c(F)c1
  A: -4	B: 13	C: 13	D: -3	E: -47	F: 25	G: 5334
O=C(CSc1nnc(C2CC2)n1C1CC1)c1cc(F)ccc1F
  A: x	B: 0	C: 3	D: 2	E: -16	F: 3.1	G: 3924
CCc1cc(C(=O)COc2ccc(F)cc2)c(O)cc1O
  A: 7	B: 8	C: 5	D: 9	E: -21	F: 14	G: 4703
Cc1ccc(-n2c(SCC(=O)NCCN3C(=O)CSC3=O)nnc2-c2ccccc2F)cc1
  A: -3	B: 2	C: 14	D: 9	E: -30	F: 3.7	G: 2149
COC(=O)c1cc2oc3ccccc3c2n1CC(=O)N1CCCc2ccccc21
  A: 4	B: 0	C: -1	D: 3	E: -6	F: 0.9	G: 6892
Cc1cc(=O)oc2cc(OC(C)C(=O)NCc3ccccn3)ccc12 (stereo not given)
  A: -1	B: -2	C: -6	D: 3	E: -15	F: 0.5	G: 5478
COc1cccc(-c2cccc(NC(=O)C3CCN(Cc4ccc(CO)o4)CC3)c2)c1
  A: 3	B: 9	C: 6	D: 5	E: -19	F: 3.3	G: 6037
CCOc1cc(C=NNC(=O)c2ccncc2)ccc1OC(=O)c1ccc([N+](=O)[O-])cc1
  A: x	B: 2	C: 6	D: 2	E: x	F: 8.9	G: x
NC(=NOC(=O)Oc1ccccc1)c1ccc([N+](=O)[O-])cc1
  A: x	B: 8	C: -4	D: -9	E: x	F: 5.9	G: x
CSCC[C@H](N)C(=O)N1CCC(C(=O)N[C@@H](C)C(=O)NCc2ccc(F)cc2)CC1
  A: -8	B: -11	C: x	D: x	E: -12	F: 3.0	G: 5188
COc1cc(OC)c2c(-c3ccccc3)cc(=O)oc2c1C(CC(=O)N1CCN(c2ccccc2)CC1)c1ccc(N(C)C)cc1 (stereo not given)
  A: -4	B: -13	C: 2	D: 13	E: -11	F: 29	G: 3673
Cc1ccc(NC(=O)CN(C)C(=O)c2cccc(Br)c2)cc1
  A: -6	B: 20	C: 2	D: -1	E: -31	F: 1.6	G: 3639
Cc1ccc(S(=O)(=O)N=C(CSC(N)=O)Nc2ccccc2)cc1
  A: x	B: -6	C: 7	D: 2	E: x	F: 4.3	G: x
O=C(NCCOc1ccccc1Cl)C(=O)NCCOc1ccccc1Cl
  A: 4	B: 0	C: 2	D: 6	E: -16	F: 10	G: 3274

Hits appear at their usual frequency. About 4% of those tested had a hit in this group.
